Ba CapD inh: Bacillus anthracis CapD inhibitors, primary screen, biochemical, fluorescence intensity; CapD gamma-glutamyltranspeptidase (Bacillus anthracis Ames Ancestor); purified CapD enzyme, fluorescence intensity read-out; stronger effect = lower value; some hits fall short of the stated cut; z-score (no concentration beside the values); 140,000 compounds, 0.23% hits;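 active = z-score under -4 in either of two replicates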;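 also: stock transfer was 100 nL into about 40 µL; score is relative to mean and spread of the plate; one replicate is shown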
AID504770: growth inhibition of E. coli YBA685, primary screen, V. cholerae RctB inhibitors. E. coli YBA685 rctB-dependent plasmid, OD600 growth, 3 h; stronger effect = lower value. z-score (no concentration beside the values). 130,000 compounds, 0.27% hits;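 active = z-score under -2 on both plates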;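 also: wells of about 30 µL received 100 nL stock; score is relative to mean and SD of the test wells; the first replicate is given; strong numbers were not always called active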
* marks the source's active call; other numbers are inactive results; . = not tested or not shown; & = joins results of further samples. These rows are one share of the data. The share of hits here may be higher or lower than overall.

Fields – Ba CapD inh | AID504770
1) O=C(CCC1CCCC1)Nc1c2c(nn1-c1ccc(F)cc1)CS(=O)(=O)C2
 : -0.22 | -1.1
2) CNC(=O)Nc1cccc2cccnc12
 : 0.685 | 0.55
3) CCC1CSC(Nc2cccc(Cl)c2)=N1 (centres undefined)
 : . | 0.1
4) CCN(CC)C(=O)c1sc2c(c1C)c(=O)n(Cc1ccccc1)c(=O)n2CC(=O)NCC1CCCO1 (centres undefined)
 : -0.155 | -0.7
5) O=C(Nc1ccc(F)cc1)C1CCCN(c2ncccn2)C1 (centres undefined)
 : 4.51 | 0.9
6) Cc1nn(C)c(C)c1S(=O)(=O)N(CC(=O)N1CCCC1)c1ccc(C(C)C)cc1
 : 0.09 | 0.25
7) NC(N)=NCCC[C@@H](NC(=O)[C@@H](N)Cc1ccc(O)cc1)C(=O)O
 : 0.545 | .
8) Cc1cc2nc3c(=O)n(C)c(=O)n(C)c3nc2cc1N
 : -0.28 | .
9) COC(=O)C1=C(C)Nc2ncnn2C1c1ccccc1 (centres undefined)
 : -0.61 | -0.5
10) Cn1ccnc1S/C(=C/C=C(C#N)C#N)c1ccc(Cl)cc1
 : -2.71 | 1.85
11) Cc1ccc(NS(=O)(=O)N2CCCCC2)cc1
 : 0.14 | 0.2
12) CC1(C)Cc2cccc(C(=O)NCc3cccnc3)c2O1
 : 2.49 | 0.4
13) CC1CC(C)CN(S(=O)(=O)c2ccc(C(=O)Nc3nc4ccc(Cl)cc4s3)cc2)C1 (centres undefined)
 : -0.345 | .
14) O=C(NCc1ccccc1)c1ccccc1OCc1nnc(-c2ccc(Cl)cc2)o1
 : . | -2.8
15) CCCCNc1nc2c(S(=O)(=O)c3ccccc3)nnn2c2ccsc12
 : 1.14 | -0.35
16) N#C/C(=C\Nc1ccc(OC(F)(F)F)cc1)c1ccc(OCCCF)cc1
 : -1.92 | .
17) CC1(C)CC(=O)c2c(S(C)(=O)=O)sc(C(=O)OCc3ccccc3)c2C1
 : -0.115 | -0.4
18) O=C(Oc1cccc2cccnc12)c1cc(S(=O)(=O)N2CCCCC2)c(Cl)cc1Cl
 : -0.26 | .
19) COc1ccc(C2CC(c3ccccc3)=NN2C(=O)CCCC(=O)O)cc1OC (centres undefined)
 : -0.405 | .
20) COC(=O)C1C(=O)N2CCCSC2=C(C#N)C1c1cccs1 (centres undefined)
 : . | 0.15
21) C=CC(=O)N1c2cc(C)c(C)cc2-c2c(ssc2=S)C1(C)C
 : -0.455 | .
22) O=c1[nH]n(CC2COC3(CCCCC3)O2)c(=O)c2ccccc12 (centres undefined)
 : . | -0.4
23) CC(C)OC(=O)C(C)Oc1ccc2c(-c3ccccc3)cc(=O)oc2c1 (centres undefined)
 : 1.75 | -0.7
24) COc1ccc(OC)c(C2NC(=S)NC(C)=C2C(=O)Nc2cccc(Cl)c2C)c1 (centres undefined)
 : 0.255 | .
25) O=C(c1cc(Cl)nc(Cl)c1)N1CCN(c2ncc(-c3ccc(Cl)cc3)cn2)CC1
 : -0.14 | .
26) CC1=C(C(=O)OC2CCCC2)C(c2coc3ccc(C)cc3c2=O)C2=C(CC(c3cccs3)CC2=O)N1 (centres undefined)
 : 0.595 | .
27) CC(C)(C)NC[C@H](O)COc1nsnc1N1CCOCC1
 : -0.285 | .
28) CC(C)NC(=O)CCn1c(=O)sc2ccccc21
 : 0.41 | 0.85
29) CC1Cc2ccccc2N1C(=O)CCS(=O)(=O)c1cccs1 (centres undefined)
 : 0.545 | 0.65
30) CCCCC(=O)Nc1cc(-c2nc3cc(C(C)C)ccc3o2)ccc1OC
 : 16.8 | -0.65
31) C(CN1CCOCC1)NC1CC2CCC1C2 (centres undefined)
 : -0.38 | 1.5
32) Nn1c(SCCCSc2nnc(C(F)(F)F)n2N)nnc1C(F)(F)F
 : . | -0.25
33) CC(C)=CCCC(C)N1CCCCC1 (centres undefined)
 : -0.035 | -0.35
34) COc1cc(C2N(Cc3ccccc3)CCCN2Cc2ccccc2)c([N+](=O)[O-])cc1OC
 : -0.54 | .
35) CC(=O)Nc1cccs1
 : -0.005 | -0.65
36) Cc1cccc(C(=O)N2CCN(S(=O)(=O)N3CCCCC3)CC2)c1
 : -0.005 | -0.1
37) CC(C)C(=O)Nc1ccc([N+](=O)[O-])c(C(F)(F)F)c1
 : -0.245&-0.24 | 0.8
38) Cn1c(=O)c2[nH]c(-c3ccc(OCC(=O)NCc4ccccc4)cc3)nc2n(C)c1=O
 : 8.89 | 0.75
39) Cc1c(S(=O)(=O)c2ccc(Cl)cc2)csc1C(=O)N1CC(C)OC(C)C1 (centres undefined)
 : -0.025 | 2.55
40) c1ccc(SCc2cn3ccsc3n2)cc1
 : 0.3 | 0.05
41) Clc1ccc2c(c1)C1CC(c3cccnc3)=NN1C1(CCCCC1)O2 (centres undefined)
 : 0.16 | .
42) CCCOc1ccc(C(=O)NCC2(c3ccccc3)CCOCC2)cc1
 : 0.13 | 0.25
43) Cn1c(Br)nc2c1c(=O)n(Cc1ccccc1F)c(=O)n2C
 : -0.755 | .
44) O=S(=O)(Nc1ccc2c(c1)OC1(CCCCC1)O2)c1ccc2ccccc2c1
 : -0.525 | 0.05
45) CC(C)(C)c1ccc(OCCCC(=O)O)cc1
 : -1.11 | -0.4
46) CCCCc1ccc(NC(=O)Nc2cc(C(C)(C)C)nn2C)cc1
 : -1.16 | -0.8
47) Cc1ccc2onc(CC(=O)NCCN3CCN(C)CC3)c2c1
 : 0.965 | -0.7
48) COC(=O)C1=CN(Cc2ccc(F)cc2)C=C(C(=O)OC)C1c1ccc(OCc2ccccc2)c(OC)c1
 : 58.7 | .
49) CC(C)(C)NC(=O)C1Cc2ccccc2CN1C(=O)Nc1ccccc1Cl (centres undefined)
 : -0.35 | .
50) CCOc1ccc2cc(C3CC(c4ccco4)=NN3S(=O)(=O)c3ccccc3)c(Cl)nc2c1 (centres undefined)
 : 10.6 | 1.2
51) CCOC(=O)N1CCC(NC(=O)C2c3ccccc3C(=O)N(C)C2c2cn(C)c3ccccc23)CC1 (centres undefined)
 : -0.09 | -0.55
52) CCCc1c(C(=O)NCCc2ccccn2)cnn1-c1ccc(Cl)cc1
 : -0.04 | -0.05
53) CC(C)C12CN3CC(C(C)C)(CN(C1)C3c1ccc(O)cc1O)C2=O (centres undefined)
 : -0.25 | .
54) O=C(O)/C=C/C(=O)NCc1ccc(F)cc1
 : 0.47 | -0.35
55) COc1ccccc1NC(=O)NNc1c(C)cc(C)cc1C
 : . | -0.35
56) O=C(O)c1ccc(CN2CCN(Cc3ccc(C(=O)O)o3)CC2)o1
 : -0.54 | -0.45
57) N#Cc1cc(C(=O)O)c(=O)[nH]c1SCc1ccccc1Cl
 : . | -0.25
58) Cc1ccc(NS(=O)(=O)c2cccc(C(=O)Nc3ccccc3)c2)cc1
 : -0.155 | -0.35
59) C[C@H](N=C1NS(=O)(=O)c2ccccc21)C(=O)OCC(=O)N1CCC(c2ccccc2)=N1
 : . | -0.85
60) Cc1nc2ccc(NC(=O)C(C)(C)C(=O)Nc3ccc4nc(C)c(C)nc4c3)cc2nc1C
 : 12.4 | 0.15

Next structures follow:
Fields – Ba CapD inh | AID504770
61) OCC(O)C(O)C(O)C1Nc2ccccc2S1 (centres undefined)
 : -0.615 | 2.5
62) NS(=O)(=O)c1ccc(NC(=O)CN2CCCC2)cc1
 : 0.995 | -0.35
63) O=C(Nc1cccnc1)c1ccc(COc2ccccc2Br)cc1
 : 0.35 | 0.25
64) Cc1ccc2c(CN3CCN(CC#N)CC3)cc(=O)oc2c1
 : 0.17 | 0
65) CCC(=O)N1N=C(c2ccccc2)CC1Cc1cc2cccc(C)c2[nH]c1=O (centres undefined)
 : 0.025 | .
66) CC(C)(C)c1ccc(C(=O)NCCSC(=O)c2ccc(C(C)(C)C)cc2)cc1
 : 0.01 | .
67) Cc1ccc(Cn2ccc(NC(=O)c3noc4c3CCc3ccccc3-4)n2)cc1
 : 0.935 | 0.65
68) O=C(Nc1ccccc1)NC12CC3CC(CC(C3)C1)C2
 : -0.075 | 0.1
69) CCOC(=O)c1c(NC(=O)c2ccc(OC)cc2)sc(C(=O)Nc2ccccc2C(F)(F)F)c1C
 : -0.45 | .
70) O=C(N/C=C/c1ccsc1)Nc1ccccc1C(F)(F)F
 : 0.785 | 1.05
71) O=C(CBr)Nc1cccc(C(F)(F)F)c1
 : -0.14 | -0.95
72) NC(=O)c1c(O)sc2c1CCCC2
 : . | 1.65
73) Nc1ccccc1NC1CCN(Cc2ccccc2)CC1
 : 0.1 | .
74) CCOc1ccccc1N(C)C(=O)c1nn(-c2ccc(OC)cc2OC)c(=O)c2ccccc12
 : . | 0.1
75) Nc1nc(SCc2cccc(C(F)(F)F)c2)ncc1C(=O)O
 : -1.06 | -0.35
76) CCOC(=O)c1c(C=O)oc2c(C)cc(OC(=O)c3cc(C)cc(C)c3)c(Br)c12
 : 0.24 | .
77) N#CC1=C(N)n2c(s/c(=C\c3ccc(Cl)cc3)c2=O)=C(C#N)C1c1ccc(Cl)cc1 (centres undefined)
 : -0.145 | .
78) Cc1ccc(/C(O)=C2\C(=N)N(c3ccccc3)C3=C(C(=O)CCC3)C2c2ccccc2)cc1 (centres undefined)
 : -0.005 | .
79) CC1=C(NC(=S)NC(=O)c2ccccc2)NCc2ccccc21
 : 0.26 | 0.95
80) Cc1c(C)c(C)c(C(=O)CCc2cccc(NC(=O)C3CCC3)c2)c(C)c1C
 : -0.165 | 2.6
81) OC(c1ccccc1)c1cccs1 (centres undefined)
 : 0.25 | .
82) Cc1ccc(NC(=O)Cn2c(=O)n(-c3cc(C)cc(C)c3)c(=O)c3sccc32)cc1
 : 0.195 | 1.5
83) Clc1cccc2c(N3CCC(n4cccc4)CC3)ccnc12
 : 0.33 | 0.75
84) Cc1ccccc1N/C(SCc1cccc([N+](=O)[O-])c1)=C(/C#N)C(N)=O
 : 0.08 | .
85) c1ccc2oc(SCc3cn4ccccc4n3)nc2c1
 : -0.02 | -1.55
86) CCc1nc2ccccc2c2c1C(=O)N(NC(=O)c1ccc(C)s1)C2=O
 : 5.72 | .
87) c1ccc2c(c1)CCN(Cc1nc3ccccc3[nH]1)C2
 : . | -0.3
88) CC(=O)Nc1ccc(CN2CCN(C)CC2)cc1
 : 0.21 | 0.35
89) COc1ccccc1N1C(=O)C2CC=CC(C)C2C1=O (centres undefined)
 : 0.345 | 0.15
90) CCOC(=O)C1=C(C)N=c2s/c(=C/c3cc([N+](=O)[O-])ccc3N3CCN(C)CC3)c(=O)n2C1c1ccc(F)cc1 (centres undefined)
 : -0.01 | .

2 entries from above, as a markdown table.
| # | SMILES | Ba CapD inh | AID504770 |
| --- | --- | --- | --- |
| 80 | Cc1c(C)c(C)c(C(=O)CCc2cccc(NC(=O)C3CCC3)c2)c(C)c1C | -0.165 | 2.6 |
| 65 | CCC(=O)N1N=C(c2ccccc2)CC1Cc1cc2cccc(C)c2[nH]c1=O (centres undefined) | 0.025 | . |

Carrying on.
Fields – Ba CapD inh | AID504770
91) CCOC(=O)c1sc2nc(CC(=O)OC)nc(NCC3CCCO3)c2c1C (centres undefined)
 : 52 | .
92) Cc1ccc(C)n1-c1ccccc1CN(C)C1CCCCC1
 : . | -0.9
93) COc1ccc([S+]2CCCCC2)cc1
 : -4.91* | -0.1
94) COC(=O)CN1c2ccccc2S(=O)(=O)c2ccccc21
 : 2.19 | 0.2
95) O=C(O)C(=O)/C=C(\O)c1ccc(Cl)cc1
 : -1.66 | 0.45
96) Cc1cc(C)cc(N=Cc2ccc(C#N)cc2)c1
 : 0.19 | -0.6
97) COc1ccc(C2Nc3ccccc3C(=O)N2c2ccccc2)cc1COc1cc(C)c(Cl)cc1C(C)C (centres undefined)
 : 17.3 | .
98) CCOC(=O)CNC(=O)c1sc2ncnc(N3CCN(c4ccc(OC)cc4)CC3)c2c1C
 : 0.26 | .
99) NC(=O)CSc1ncc(CO)n1Cc1ccccc1
 : 0.065 | -1.3
100) CN(C(=O)c1cc2c(s1)-c1ccccc1OC2)C1CCCCC1
 : 13.8 | -0.55
101) COC(=O)c1cc2ccsc2n1CC(=O)NCC1CCCO1 (centres undefined)
 : 0.87 | 0.45
102) C=CCOc1nc(N2CCCCC2)nc(N2CCCCC2)n1
 : 0.28 | 0.15
103) Cc1ccc(S(=O)(=O)N2CCN(C(=O)CSc3nccn3C)CC2)cc1
 : . | 1.85
104) CCCCn1c(CNC(=O)c2cccs2)nc2ccccc21
 : 0.545 | -0.2
105) O=C(COC(=O)C1(c2ccc(F)cc2)CCCC1)N1CCOCC1
 : -0.25 | -1.05
106) CC(C)(C)C1CCC2(CC1)NC(=S)N(c1ccc(Cl)cc1)N2 (centres undefined)
 : 0.08 | .
107) CCOc1ccc(NC(=O)CSc2nc3ccccc3c(=O)n2-c2ccc(C(=O)N3CCOCC3)cc2)cc1
 : -0.805 | .
108) CC(C)C(=O)N1C2=C(C(=O)c3ccccc32)C(c2ccc(Cl)cc2)c2c1n(C)c(=O)n(C)c2=O (centres undefined)
 : 0.42 | -0.6
109) CN1CCN(CCNC(=O)Cn2cccc2C(=O)c2ccccc2)CC1
 : -1.75 | 0.7
110) Cc1ccc(N2C(=O)NC(=O)/C(=C/c3cc(Br)c(O)cc3O)C2=O)cc1
 : -1.97 | .
111) O=C(/C=C/c1ccccc1)Nc1ccc(-c2nnc(-c3ccco3)o2)cc1
 : 2.46 | -0.2
112) C=CCn1c(-c2ccc(OC)cc2)csc1=Nc1ccc(Br)cc1
 : 0.48 | -0.25
113) COc1ccc(OC)c(C(O)C(C)N)c1 (centres undefined)
 : -0.41 | 0.3
114) CSc1nnc2c(n1)OC(C)Nc1ccc(Br)cc1-2 (centres undefined)
 : 0.42 | 0.35

Compound profiles, from the list above. Values in the order: Ba CapD inh	AID504770
O=C(Oc1cccc2cccnc12)c1cc(S(=O)(=O)N2CCCCC2)c(Cl)cc1Cl reads -0.26	.
Cc1ccc2c(CN3CCN(CC#N)CC3)cc(=O)oc2c1 reads 0.17	0
CC(C)(C)NC(=O)C1Cc2ccccc2CN1C(=O)Nc1ccccc1Cl (centres undefined) reads -0.35	.
Cc1cccc(C(=O)N2CCN(S(=O)(=O)N3CCCCC3)CC2)c1 reads -0.005	-0.1
